Source: PubChem (Broad Institute)
STK33 kinase inh = inhibitors of purified STK33 kinase, primary screen, biochemical, ADP-Glo luminescence, homogeneous, cell-free | Serine/threonine-protein kinase 33 (Homo sapiens), Q9BYT3 | MBP phosphorylation | inhibition, % at 10 µM | hit rate 0.073% among 320,000;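 active means inhibition at or above 25%, using the most active replicate where run in duplicate; inactive means inhibition below 25%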
Target sequence (Q9BYT3 whole entry, looked up): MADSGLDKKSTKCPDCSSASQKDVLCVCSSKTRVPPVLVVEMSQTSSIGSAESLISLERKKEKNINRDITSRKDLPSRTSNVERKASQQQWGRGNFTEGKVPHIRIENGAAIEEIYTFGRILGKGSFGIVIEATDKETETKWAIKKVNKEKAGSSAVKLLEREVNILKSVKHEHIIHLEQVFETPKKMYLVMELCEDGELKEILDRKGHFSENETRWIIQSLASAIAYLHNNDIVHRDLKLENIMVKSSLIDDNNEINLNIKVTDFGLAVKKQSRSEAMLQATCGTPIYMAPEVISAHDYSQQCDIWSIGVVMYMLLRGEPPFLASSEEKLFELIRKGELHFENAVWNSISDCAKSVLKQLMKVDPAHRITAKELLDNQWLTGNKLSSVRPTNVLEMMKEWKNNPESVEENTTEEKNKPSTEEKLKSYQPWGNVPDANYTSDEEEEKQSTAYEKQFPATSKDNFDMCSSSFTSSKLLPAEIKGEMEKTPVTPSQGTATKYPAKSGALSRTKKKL
The depositor's hits bear a star. This is a subset, and most or all hits are left out here.

SMILES	STK33 kinase inh
CCc1c(C(C)=O)oc2ccc3c(C)cc(=O)oc3c12	0.1
Cc1cc(OCc2nc(-c3cccnc3)no2)c(C)cc1Br	-1.2
C#CCOCCOCCOCCNc1nc(N2CCN(C(=O)[C@H]([C@@H](C)CC)n3cc(CCCCN)nn3)CC2)nc(N2CCN(C(=O)[C@H](C)n3cc(CCC(=O)O)nn3)CC2)n1	0.1
Cc1ccc(C(=O)COc2ccccc2C(=O)Nc2ccccc2)cc1	-0.5
CC(=O)N(Cc1cc(=O)[nH]c2ccccc12)c1ccccc1	0.9
CC1CN(c2ncc(/C=N/NC(=O)c3ccccc3O)s2)CC(C)O1 (configuration not stated)	0.6
CC1(C)CC(=O)C(N=Nc2ccc3ncsc3c2)=C(O)C1	-0.4
COc1ccc(-c2[nH]ncc2CN(C)CCCN2CCOCC2)cc1F	-1.0
Cc1cc(Nc2ccccc2)nc(N2CCOCC2)n1	-1.5
Cc1cnc(NC(=O)CSc2nnc(-c3ccccc3)o2)s1	-0.8
COc1ccc(-c2cc(C)nc3nc(N)nn23)cc1	-1.8
Nc1nc(Nc2ccccc2)nc(N2CCOCC2)c1[N+](=O)[O-]	3.3
CC(=O)COc1ccc2oc(=O)cc(-c3cc4ccccc4o3)c2c1	-0.1
CCN(CC)CCCC(C)NC(=O)c1ccc(C(F)(F)F)cc1 (configuration not stated)	-2.0
Cc1cc(/C=N\NC(=O)COc2cccc3cccnc23)c(C)n1-c1ccccc1	1.8
COc1ccc(-c2cc(CS(=O)(=O)c3ccccc3)on2)cc1	-2.5
O=C(Nc1ccccc1N1CCOCC1)c1ccc2ccccc2c1	1.1
Cc1ccc(-c2ccc(C(=O)NCc3ccc(Cl)cc3)o2)c2ccccc12	1.9
COc1ccc(C)cc1NC(=O)CNC(c1ccccc1)c1ccc(C)cc1 (configuration not stated)	0.4
Cc1ccc(C=Nc2ccccc2C(N)=O)cc1	-2.7
CC1CCCCN1C(=O)c1cc(-c2ccc(Cl)c(Cl)c2)on1 (configuration not stated)	-1.5
CCOc1ccc(NC(=O)[C@@H](NC(=O)OCc2ccccc2)[C@@H](C)CC)cc1	-3.1
O=C(Cn1cc(C(=S)N2CCOCC2)c2ccccc21)N1CCOCC1	-0.1
CC(=O)N(C)C1(c2nnnn2CCOC(=O)Nc2ccc(Cl)cc2)CCCCC1	0.6
COc1ccccc1CN1C(=S)SC(C)(C)C1NO (configuration not stated)	-0.8

For convenience, some entries already given.
SMILES	STK33 kinase inh
Nc1nc(Nc2ccccc2)nc(N2CCOCC2)c1[N+](=O)[O-]	3.3
CC(=O)COc1ccc2oc(=O)cc(-c3cc4ccccc4o3)c2c1	-0.1

Some of these compounds in order of their number in STK33 kinase inh, smallest number first.
SMILES	STK33 kinase inh
COc1ccc(-c2cc(C)nc3nc(N)nn23)cc1	-1.8
CC1CN(c2ncc(/C=N/NC(=O)c3ccccc3O)s2)CC(C)O1 (configuration not stated)	0.6
Nc1nc(Nc2ccccc2)nc(N2CCOCC2)c1[N+](=O)[O-]	3.3

(listing goes on)
SMILES	STK33 kinase inh
C/C(=N\NC(=O)CN1CCOCC1)C(C)(C)C	-2.6
CCc1cccc(C)c1NC(=O)c1cc(C)oc1C	-1.5
Cc1ccc2nc(-c3ccccc3)cc(C(=O)N3CCc4ccccc4C3)c2c1	-1.6
COC(=O)c1ccc(CSc2nc(-c3ccccc3)cs2)o1	1.4
CC(C)c1ccc(NC2CCCN(C(=O)c3ccsc3)C2)cc1 (configuration not stated)	-1.6
CCOC(=O)c1ccc(NS(=O)(=O)c2ccc(-c3coc(C)n3)cc2)cc1	-0.5
CCC(c1ccccc1)c1nc(-c2ccccn2)no1 (configuration not stated)	0.4
CC(=O)c1cccc(NC(=O)NNC(=O)c2ccc(Cl)cc2Cl)c1	-1.3
Cc1ccccc1CS(=O)(=O)Cc1ccc(C(=O)NCc2ccccn2)o1	-0.7
Cc1ccc2cc(C)c3nnc(SCC(=O)N4CCCc5ccccc54)n3c2c1C	1.0
O=C(c1ccccc1)N(C1=NCCCCS1)c1ccccc1	-1.1
CCOCCOC(=O)C(C)Oc1ccc(Oc2nc(Cl)ccc2Cl)cc1 (configuration not stated)	-0.9
CC(=O)N1c2ccc(S(=O)(=O)N3CCCCC3)cc2CC1C(=O)Nc1ccc(F)cc1C (configuration not stated)	-1.2
CC(=O)Nc1ccc(S(=O)(=O)Nc2nc3ccccc3nc2Nc2cccc(O)c2)cc1	-0.7
CC(=O)c1sc2nc(=O)c(C)nn2c1C	0.1
COc1cc(NC(=O)COC(=O)CC(C)(C)C)c(C)cc1[N+](=O)[O-]	1.8
O=C(c1ccccn1)C1CCCN(Cc2nc(Cc3cccc(F)c3)no2)C1 (configuration not stated)	-0.9
Cc1ccc(C)c(OCc2cc(C(=O)N3CCN(c4ccccc4)CC3)no2)c1	-0.9
Cc1ccc(-c2nc(-c3ccccn3)no2)cc1[N+](=O)[O-]	1.9
Cc1ccc(-n2nnnc2SCC(=O)Nc2sccc2C#N)cc1	-2.1
COc1cccc(C=O)c1OCCCOc1cccc2cccnc12	1.6
COc1ccc(N2C(=O)C3CCCCC3C2=O)cc1NC(=O)c1ccccc1 (configuration not stated)	-1.1
Nc1c(-c2ccccc2)c(CSc2nc3ccccc3[nH]2)nn1-c1ccc(C(=O)O)cc1	-0.8
CC(C)(C)CC(=O)Nc1cccc2c1CCCC2	-1.0
CCCOc1ccc(CN(CCO)CCO)cc1C(=O)OC	-0.3

A few values from above.
Reading of `Cc1ccc(C)c(OCc2cc(C(=O)N3CCN(c4ccccc4)CC3)no2)c1` under STK33 kinase inh: -0.9
Reading of `Cc1ccc(C(=O)COc2ccccc2C(=O)Nc2ccccc2)cc1` under STK33 kinase inh: -0.5
Reading of `COc1ccc(-c2cc(CS(=O)(=O)c3ccccc3)on2)cc1` under STK33 kinase inh: -2.5

More records follow.
SMILES	STK33 kinase inh
CCN(CC(=O)NC1CCS(=O)(=O)C1)S(=O)(=O)c1ccccc1Cl (configuration not stated)	-0.1
CCOC(=O)c1sc(NC(=S)NC(=O)C2CC2)cc1C	-0.8
O=C(C(c1ccccc1)c1ccccc1)N1CCN(Cc2ccc(Br)cc2)CC1	-1.4
Cn1c(-c2sc3cc(C(F)(F)F)cnc3c2-c2cccnc2)n[nH]c1=S	0.4
O=C(O)/C=C/C(=O)NC1CCC(CC2CCC(NC(=O)/C=C/C(=O)O)CC2)CC1 (configuration not stated)	-0.9
CCC1CCCCN1C(=O)CSc1nc(N)c(NC(=O)c2ccc(OC)c(OC)c2)c(=O)[nH]1 (configuration not stated)	-0.3
COc1cccc(/C=C2\SC(=O)N(CCC(=O)NNC(=O)c3cccc(Cl)c3)C2=O)c1	-1.1
O=C(CSc1ncccc1C(=O)O)c1ccccc1	-0.5
O=C(CC1CCCC1)NCCS(=O)(=O)N1CCN(c2ccc(F)cc2)CC1	1.8
CCOc1ccc(N2C(=O)C3ON(c4ccccc4)C(c4cccs4)C3C2=O)cc1 (configuration not stated)	-1.4
CCC(C)(C)NC(=O)CN(Cc1ccc2c(c1)OCO2)C(=O)CCC(=O)Nc1ccccn1	-0.5
COCC(CN1CCN(C2=NS(=O)(=O)c3ccccc32)CC1)OC(=O)c1ccc(OC)cc1 (configuration not stated)	-0.8
Cc1oc(-c2cc(Cl)cc(Cl)c2)cc1C(=O)NCCc1ccccc1	-0.9
O=C(Nc1ccon1)c1ccccc1Cl	-1.9
CC1CCCCC1NS(=O)(=O)CCNC(=O)c1ccccc1 (configuration not stated)	-1.9
COCCNC(=O)c1ccc(C(=O)NCCOC)s1	-1.6
CCN(CC)CCOC(=O)c1cccc(Br)c1	-0.9
C=CCn1c(Cc2cccs2)nnc1SCC(=O)Nc1cc(OC)cc(OC)c1	-1.9
Cc1cccc(C)c1OCC(O)Cn1c2ccccc2c2ccccc21 (configuration not stated)	-1.2
COCCn1c(C)nc2oc3ccc(Br)cc3c(=O)c2c1=O	-0.3
Cc1nn2c(C)c(C(=O)Nc3ccccc3)cnc2c1-c1ccccc1	-0.5
COc1ccc(CCNC(=O)CSc2nnc(-c3cccc(C)c3)o2)cc1OC	-1.7
N#CC(C#N)=C1C(=O)N(CCN2CCOCC2)c2ccccc21	-0.7
CCNC(=O)COC(=O)c1cccc(Br)c1	-0.8
Cc1ccc2nsnc2c1NC(=O)c1sc2ccccc2c1Cl	-1.6
(more compounds)
SMILES	STK33 kinase inh
CCCCNC(=O)C(=O)Nc1cc2c3c(c1)CCC(=O)N3CCC2	-1.7
COc1ccc(OC)c(CCNC(=O)c2ccc3c(c2)N(Cc2ccccc2)CCS3)c1	-0.9
O=c1[nH][nH]c2nc(C(F)(F)F)cc(C(F)(F)F)c12	-0.5
C=CCN1C(=O)C2(C(C(=O)c3ccc(C)o3)=C(O)C(=O)N2CCCN2CCOCC2)c2ccccc21 (configuration not stated)	-1.1
O=c1oc(-c2ccccc2)nc2c1cnn2-c1ccccc1	-1.8
Clc1ccc(Cl)c(OCCCCN2CCNCC2)c1	-0.5
COc1ccc2[nH]c(C(=O)N3CCC(n4nccc4NC(=O)C4CC4)CC3)c(C)c2c1	0.1
CC/C(=N\NC(=O)c1c(-c2ccccc2)noc1C)c1ccc(C)o1	0.4
CC(C)(C)NC(=S)Nc1ccc(Br)cc1	-3.3
CC12CCC(C(=O)N(CCCN3CCN(Cc4ccccc4)CC3)C1=O)C2(C)C (configuration not stated)	-0.7
COc1ccc(C(=O)NCc2ccc(-c3nc4ccccc4s3)cc2)cc1	-1.0
CCC(C)c1ccc(NC(=O)C2CCN(c3ncccn3)CC2)cc1 (configuration not stated)	0.9
Cc1cc(C)cc(-n2nnnc2-c2cn(C)nc2C(F)(F)F)c1	-2.0
C=CCN1C(=O)C2C(C(=O)NCc3ccccc3)C3(C)C=CC2(O3)C1C(=O)NC(C)(C)C (configuration not stated)	-1.5
Cc1noc(C)c1CSCC(=O)N(C)CC(=O)Nc1ccccc1Br	-1.1
CCOC(=O)C1CCN(C2CCN(C(=O)c3oc4c(C)c(C)ccc4c3C)CC2)CC1	0.4
CC(C(=O)Nc1nccs1)N1C(=O)c2ccccc2S1(=O)=O (configuration not stated)	-0.6
CCCCOC(=O)c1ccc(NC(=O)c2ccc(F)cc2F)cc1	-0.4
CCC1(c2ccccc2)NC(=O)N(CC(=O)Nc2ccccc2C(=O)NC2CCCC2)C1=O (configuration not stated)	-1.4
O=C(c1ccc([N+](=O)[O-])cc1)N1CCN=C1SCc1ccccc1	-0.1
CNC(=O)N(O)C1N(/N=C/c2ccc(N(C)C)cc2)C(=S)SC1(C)C (configuration not stated)	0.2
COc1cccc(C(=O)Nc2cccc(NC(=O)c3cccs3)c2)c1	1.5
CC(=O)c1ccc(NC2OC(CO)C(O)C(O)C2O)cc1 (configuration not stated)	-0.4
COC(=O)c1cccc(NC(=O)Cc2ccc(OC)cc2)c1C	-0.9
Cc1sc(NC(=O)c2ccc(Cl)s2)c(C(N)=O)c1C	-0.1

Grouped by structure: the entries above with an NH in an aromatic ring (7)
SMILES	STK33 kinase inh
CC(=O)N(Cc1cc(=O)[nH]c2ccccc12)c1ccccc1	0.9
COc1ccc(-c2[nH]ncc2CN(C)CCCN2CCOCC2)cc1F	-1.0
Nc1c(-c2ccccc2)c(CSc2nc3ccccc3[nH]2)nn1-c1ccc(C(=O)O)cc1	-0.8
Cn1c(-c2sc3cc(C(F)(F)F)cnc3c2-c2cccnc2)n[nH]c1=S	0.4
CCC1CCCCN1C(=O)CSc1nc(N)c(NC(=O)c2ccc(OC)c(OC)c2)c(=O)[nH]1 (configuration not stated)	-0.3
O=c1[nH][nH]c2nc(C(F)(F)F)cc(C(F)(F)F)c12	-0.5
COc1ccc2[nH]c(C(=O)N3CCC(n4nccc4NC(=O)C4CC4)CC3)c(C)c2c1	0.1

Next results follow:
SMILES	STK33 kinase inh
COc1ccc(NC(=O)C2CC(=O)NC3=C2C(=O)CC(C)(C)C3)cc1 (configuration not stated)	0.0
CCNc1ccccc(C(=O)/C=C/c2ccc3c(c2)OCO3)c1=O	1.5
O=C(O)C1(S(=O)(=O)CCC(F)=C(F)F)CC1	-1.6
CCCCS(=O)CC(COCc1ccccc1)OC(=O)CSc1nc(C)cc(C)n1 (configuration not stated)	-1.4
CCn1ccnc1CN(C)C(=O)C1CCC(=O)N(Cc2cccc(C(F)(F)F)c2)C1 (configuration not stated)	0.4
CCOC(=O)C1=C(N)n2c(s/c(=C\c3ccncc3)c2=O)=C(C(=O)OCC)C1c1ccncc1 (configuration not stated)	0.4
CCn1c2ccccc2c2cc(NC(=O)CSc3nnc(-c4cccc(C)c4)o3)ccc21	0.2
CC(C)c1nnc(NC(=O)CSc2nnc(NC(=O)c3c(F)cccc3F)s2)s1	-0.8
Cc1noc(C)c1COc1ccc(CC(=O)NCCc2ccccn2)cc1	-1.4
O=C(O)c1ccc2c(c1)C1C=CCC1C(c1ccncc1)N2 (configuration not stated)	0.1
CCN(CC)C1=NS(=O)(=O)c2cc([N+](=O)[O-])ccc21	-0.7
N=c1c2c(ncn1Cc1ccco1)Oc1cc(O)ccc1C2c1ccccc1 (configuration not stated)	-1.3
COc1ccc(C(=O)OCC(=O)Nc2ccc(F)c(F)c2F)cc1OC	-1.4
O=C(Cn1nnc(-c2ccccc2NC(=O)c2ccccc2)n1)Nc1ccc2c(c1)OCCO2	0.0
Cc1ccc(NC(=O)CCNC(=O)c2ccc([N+](=O)[O-])cc2)cc1S(=O)(=O)N(C)C	2.1
CC(C)CC(=O)Nc1ccccc1N1CCN(c2ccc(F)cc2)CC1	-1.3
O=C(CSc1nc2ccccc2c(=O)n1-c1ccc(Cl)cc1)N/N=C/C=C/c1ccccc1[N+](=O)[O-]	0.1
C=CCSc1nc(C)cc(/C=C\c2ccccc2)c1C#N	0.8
COC(=O)c1[nH]c2cccc(OC)c2c1NC(=O)CCN1CCN(c2ccccc2OC)CC1	-0.7
O=C1CN(Cc2nc3cc(Cl)ccc3c(=O)[nH]2)CCN1	-0.4
Cn1c(SCC(=O)Nc2ccc(Cl)cc2F)nnc1-c1ccco1	0.6
COc1ccc(-c2n[nH]c(=S)n2-c2cc(OC)ccc2OC)cc1	0.7
O=C(c1ccc(S(=O)(=O)N2CCCCC2)cc1)N1CCN(c2ccccc2)CC1	0.5
CC(C)C(=O)Nc1ccc2oc(=O)ccc2c1	1.6
O=C(CSc1cc(Cl)ccc1Cl)NC1CCCc2ccccc21 (configuration not stated)	1.4
Cc1ccccc1NC(=O)CSc1nc2cc3c(cc2cc1C)CCC3	-0.4
N#Cc1cc(C#N)c(N2CCN(c3cccc(Cl)n3)CC2)nc1N	0.7
O=C(NC(=S)Nc1cccc2c(O)cccc12)c1cccc(Br)c1	-2.4
